gsp antagonist: antagonists of gsp mutant (McCune-Albright syndrome) | gsp-mutant cells, cAMP HTRF, 30 min; control for the full effect not named in the record | Potency, µM (titrated, usually from 76.9 µM), for the others: at the top dose activity change, negative = inhibition, hits mostly inhibitors | 0.4% of 340,000 active | AID 624288; active = falling curve of any shape with a large fitted effect; inconclusive = falling curve, mostly with a smaller effect; inactive = flat or rising curve; cell line not stated here;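 further: intracellular cAMP measured with PDE inhibitor Ro 20-1724 present during compound exposure; potency means the concentration at half of the fitted maximal effect; on the % scale 0 is the no-effect control and ±100 the full control effect; nearly all actives have a fitted effect of over 65% in size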
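HTRF cAMP measurement after 30 min RT detection following 30 min, 37C compound treatment alongside […] (added as 300 uM solution) in G418-selected cells seeded at 2000/well and grown 16–24 h.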
TRPV1 potentiator: potentiators of human vanilloid receptor 1 (TRPV1); Q8NER1; TRPV1-expressing cells, Fluo-8 calcium influx, capsaicin EC20 potentiation; host cell line not named in the record; control for the full effect not named in the record; potentiation, % at 8.33 µM; 0.02% of 320,000 active; AID 540277; active means potentiation above 80%; inconclusive means 30% to 80%; inactive means below 30%; further: 0% is about no effect
Target sequence (Q8NER1 whole entry, looked up): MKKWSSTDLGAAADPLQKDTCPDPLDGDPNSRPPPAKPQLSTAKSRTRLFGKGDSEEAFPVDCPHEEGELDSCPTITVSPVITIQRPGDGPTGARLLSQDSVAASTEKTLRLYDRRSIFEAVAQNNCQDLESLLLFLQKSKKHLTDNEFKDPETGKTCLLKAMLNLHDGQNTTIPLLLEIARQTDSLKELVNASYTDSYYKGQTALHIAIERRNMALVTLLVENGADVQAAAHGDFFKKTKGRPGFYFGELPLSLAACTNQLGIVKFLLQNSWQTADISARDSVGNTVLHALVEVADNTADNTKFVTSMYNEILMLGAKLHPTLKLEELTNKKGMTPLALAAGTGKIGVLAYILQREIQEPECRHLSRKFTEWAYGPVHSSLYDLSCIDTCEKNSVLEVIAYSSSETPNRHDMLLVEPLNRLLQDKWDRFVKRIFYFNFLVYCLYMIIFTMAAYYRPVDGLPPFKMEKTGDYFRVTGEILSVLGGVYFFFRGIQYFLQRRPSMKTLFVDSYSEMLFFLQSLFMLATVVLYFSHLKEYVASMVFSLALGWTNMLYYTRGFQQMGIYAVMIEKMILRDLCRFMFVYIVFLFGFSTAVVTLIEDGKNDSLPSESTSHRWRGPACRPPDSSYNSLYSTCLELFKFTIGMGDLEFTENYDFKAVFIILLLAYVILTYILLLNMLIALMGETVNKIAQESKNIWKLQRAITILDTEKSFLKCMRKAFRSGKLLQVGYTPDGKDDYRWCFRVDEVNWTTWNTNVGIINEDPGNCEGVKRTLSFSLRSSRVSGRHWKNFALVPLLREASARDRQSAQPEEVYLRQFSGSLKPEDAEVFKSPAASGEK
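TRPV1-expressing cells were cultured overnight at 35.5C and loaded with Fluo-8 calcium dye for 40 to 90 min at room temperature. After a 10 s baseline, compound was added and calcium influx was read kinetically for 3 min (ex 480/em 520 nm).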
TRPML1 inh: inhibitors of human TRPML1 channel | activity change, negative = inhibition, % (no concentration beside the values) | 0.02% of 390,000 active | TRPML1-inducible cells, Ca2+ dye fluorescence, FDSS; active compounds read low; inhibition of EC80 agonist-evoked calcium signal | Q9GZU1; in the data active means activity change below about -50%; inconclusive means about -30% to -50%; inactive means above about -30%;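 further: stimulus is agonist 54-4 at its EC80 concentration; on the % scale 0 is the no-effect control and ±100 the full control effect; compound concentration not given in the record; the text of the record puts the active cut at -80%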
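TRPML1-DL cells, Tet-induced overnight (~16 h, 37 °C) at 1,500 cells/well, were loaded with Ca8 no-wash dye plus quencher for 45-90 min at room temperature. Compounds were pinned during FDSS kinetic reading; agonist 54-4 at EC80 (4 uM final) then added.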
gsp agonist: gsp mutant agonism | gsp mutant cells, cAMP HTRF, 30 min; control for the full effect not named in the record | Potency, µM (highest dose often 76.9 µM), without a hit: at the top dose activation (cAMP increase), usual class: activators | 0.13% of 340,000 active; active = well fitted activation curve with a large enough effect; inconclusive = small, poorly fitted or top-dose-only effect, or another doubt; inactive = no such curve, though single readings can be large or run the other way; cell line not stated here;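 further: phosphodiesterase inhibitor Ro 20-1724 added with compounds to block cAMP breakdown; potency means the concentration at half of the fitted maximal effect; nearly all actives have a fitted effect of over 60% in size; about a fifth of the inactives were tested at one dose only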
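Cells in DMEM/10% FBS with G418 were pretreated with compounds in DMSO plus […] (300 uM stock) for 30 min at 37C. cAMP was measured by HTRF (cAMP-d2 plus anti-cAMP antibody-K) after 30 min at room temperature.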
Menin-MLL FL inh: displaces fluorescein MLL peptide from human menin; 290,000 tested, under 10 active; AID 1766; Fluorescence polarization, fluorescein-MLL peptide displacement from menin; FP activity change, % at 61.4 µM; inconclusive = falling polarisation curve, or a change in total fluorescence; inactive = total fluorescence flat and polarisation flat or rising; no compound was filed as active; the % refers to the polarisation; negative = inhibition;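 further: % of control where 0% means no effect; inhibitors lower the polarisation; unlabelled MLL peptide was the positive control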
ClpP mod: qHTS Assay for Activators of ClpP; purified B. subtilis ClpP, FRET peptide cleavage, 20 min; Potency, µM (highest dose often 57.5 µM), for inactives: at the highest dose activity change, negative = active; 1.9% of 340,000 active; AID 651965, 2013; active = well fitted falling curve with a large enough effect; inconclusive = small, poorly fitted or top-dose-only effect; inactive = no such curve, though single readings can be large or run the other way; further: potency means the concentration at half of the fitted maximal effect; the source files actives as falling curves though it sought activators and does not explain the sign; nearly all actives have a fitted effect of over 65% in size; many hits overshoot -100%
Target sequence (P80244 whole entry, looked up): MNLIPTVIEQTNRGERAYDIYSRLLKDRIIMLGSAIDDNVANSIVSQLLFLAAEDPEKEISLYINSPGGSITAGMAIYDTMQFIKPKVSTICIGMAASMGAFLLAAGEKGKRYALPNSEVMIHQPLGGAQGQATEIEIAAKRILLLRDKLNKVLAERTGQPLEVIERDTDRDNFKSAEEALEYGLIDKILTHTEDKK
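FRET quenching reversal measured ClpP activation: 10 microg/mL B. subtilis ClpP at pH 8 with the FRET-FV decapeptide, read at 430 nm after 320 nm excitation. The 20-min minus 0-min signal was scaled between DMSO/no-enzyme wells and ADEP (5.8 microM final).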
Sfp PPTase inh: blocks B. subtilis Sfp PPTase activity. Q9F4F7. Biochemical Sfp PPTase activity, qHTS. Potency, µM, inactives show max response, negative = inhibition, actives largely listed as inhibitors. 3.5% of 310,000 active. AID 1490; active means well fitted inhibition curve with a large enough effect; inconclusive means small, poorly fitted or top-dose-only effect, or another doubt; inactive means no such curve, though single readings can be large or run the other way;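 further: the enzyme is Sfp with the accession as filed and its product quenches rhodamine fluorescence; potency means the concentration at half of the fitted maximal effect; 0% = enzyme reaction without inhibitor and -100% = no enzyme wells; top concentration of the series not given in the record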
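Sfp 15 nM + cpd, 15 min RT; start w/ rhodamine-CoA 5 uM, BHQ-2-YbbR 12.5 uM (final); 50 mM Hepes pH 7.6, 10 mM MgCl2, 0.01% NP-40, 0.01% BSA; read 525/598 nm at 0 and 30 min.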
Active calls of the source: *; ? = inconclusive; nt = no result given; & = joins results of further samples; [ ] = another dose, or the depositor's remark.

SMILES	gsp antagonist	TRPV1 potentiator	TRPML1 inh	gsp agonist	Menin-MLL FL inh	ClpP mod	Sfp PPTase inh
CC(=O)Nc1ccc(S(=O)(=O)N2CCC(C(=O)NCc3ccco3)CC2)cc1	15.7%	2.0	3.5	?	nt	0.1%	22.8%
Cc1ccc(S(=O)(=O)N(C)C[C@H]2Oc3cc(Br)ccc3S(=O)(=O)N([C@H](C)CO)C[C@@H]2C)cc1	nt	nt	4.1	-23.6%	nt	1.7%	nt
C=CCCN(C(CC(C)C)C(=O)OC)S(=O)(=O)c1cc(Br)ccc1Br (stereo not given)	-2.4%	-0.6	-14.5&-5.0	?	-3.3&2.2	-2.8%	-7.2%&-0.5%
COc1ccc(-c2ccc(CN3C(CC(C)C)C(=O)N(Cc4cn(Cc5ccco5)nn4)CCS3(=O)=O)cc2)cc1 (stereo not given)	nt	nt	-6.8	-1.3%	nt	-4.7%	nt
CCCCNC(=O)c1sc(=S)n(-c2ccccc2OC)c1N	-5.9%	-5.6	26.7	-0.9%	2.2	0.1%	44.7µM*
COc1ccc(C2CCCN2C(=O)Nc2cccc(C(C)=O)c2)cc1OC (stereo not given)	-3.3%	16.8	-7.0	-16.5%	0.5	-1.9%	5.4%
CCOc1ccccc1C(=O)NCC(=O)N1CCN(Cc2ccc3c(c2)OCO3)CC1	-0.9%	-14.8	1.1	-86.2%[inhibitor]	nt	0.6%	nt
Nc1ccc(OCC(O)C[n+]2ccc(CCS(=O)(=O)[O-])cc2)cc1 (stereo not given)	-1.3%	-1.2	7.0	-13.8%	-0.2	-0.8%	11.3%
COC(=O)C(C(C)C)N1CC(=O)c2ccccc2S1(=O)=O (stereo not given)	nt	nt	13.7	nt	-0.2	nt	2.6%
CN1CCN(C(=O)c2cc3sc4ccccc4c3s2)CC1	1.9%	13.6	12.7	?	2.3	nt	-13.3%
O=S(=O)(Nc1nc(SCc2ccc(Cl)cc2)n[nH]1)c1ccccc1	11.5%	6.8	27.1	-22.5%	2.1	-1.0%	13.1%
O=c1c2sccc2n(Cc2ccc(F)cc2)c(=O)n1-c1ccc(F)cc1	2.3%	?	-21.8	8.5%	0.4	3.8%	-16.4%
CCCSc1ncnc2[nH]ncc12	13.3%	nt	-7.7	1.6%	nt	nt	nt
O=C1OC(c2cc(Br)c(O)c(Br)c2)c2ccccc21 (stereo not given)	-0.4%	nt	-22.8	-9.2%	nt	nt	nt
O=C(Nc1ccc(N2C(=O)C3C4C=CC(C4)C3C2=O)cc1Cl)c1cccs1 (stereo not given)	-4.3%	-2.4	-16.2	-6.5%	2.2	nt	8.7%
CCN1CCN(S(=O)(=O)c2ccc3c(c2)OCCO3)CC1	6.1%	5.6	11.2	3.9%	-9.1	-2.7%	15.1%
COCc1cc(C)n(CC(=O)NCC2CCCO2)c(=O)c1C#N (stereo not given)	10.2%	-4.3	3.8	-0.9%	-5.3	nt	10.7%
CCN1CCN(C(c2cccs2)C(C)NC(=O)c2ccccc2OC)CC1 (stereo not given)	5.7%	-9.3	-12.0	-70.7%[inhibitor]	-0.5	-0.9%	-0.3%
Cc1csc(NC(=O)CSc2nc(C(C)C)nc3c2c(=O)n(C)c(=O)n3C)n1	-9.0%	-3.2	-11.5	-7.2%	0.4	1.2%	-4.8%
Cc1c(Br)c(C(F)(F)F)nn1CC(=O)NCC1CCCO1 (stereo not given)	3.5%	?	-10.4	25.4%	2.9	-1.8%	-3.5%
COc1cc(OC)c(NC(=O)c2cc(S(=O)(=O)N3CCOCC3)cn2C)cc1Cl	1.9%	-10.6	-5.3	-46.5%[inhibitor]	-0.6	-2.5%	-4.0%
C=CCSC1=C(C#N)C(c2ccccc2Cl)C(C(=O)c2cccs2)C(O)(C(F)(F)F)N1 (stereo not given)	-24.8%	-5.1	3.7	-2.2%[15.4 µM]	0.2	2.1%	14.4%
CC1CCN(S(=O)(=O)c2ccc(F)c(C(=O)O)c2)CC1	-9.1%	5.8	-3.9	12.6%	-0.6	0.3%	9.9%
CCCc1ccc(S(=O)(=O)NCc2nnc(SC)n2C)cc1	15.7%	2.4	15.4	-13.0%[15.4 µM]	-0.6	nt	20.0%
COc1cc(/C=N/Nc2nnc3c(n2)[nH]c2ccccc23)ccc1O	-4.8%	18.1	-18.7	-9.9%	-2.1	-1.3%	56.2µM*
COc1ccccc1C1CC(=O)Nc2cc(C)c(C)cc21 (stereo not given)	-8.3%	-7.0	25.4	12.6%[15.4 µM]	1.5	-0.5%	9.1%
COc1ccccc1C(=O)NC(=O)COC(=O)Cc1n[nH]c(=O)c2ccccc12	-9.0%	6.1	-9.4	0.2%[15.4 µM]	nt	nt	nt
CC(=O)Nc1ccc(S(=O)(=O)Nc2cccc(-c3ccc4nncn4n3)c2)cc1	11.0%	8.6	-22.4	24.8%	-1.4	nt	4.6%
Cc1nc2cc(-c3ccccc3)nn2c(C)c1CCC(=O)N1CCN(c2ccccc2)CC1	5.0%	-10.6	-3.6&0.0	-29.2%	2.0	-8.3%&-6.4%	-6.2%
CCOCCCNC(=O)C1CCC(CNS(=O)(=O)c2cccc3nsnc23)CC1 (stereo not given)	-1.1%	-1.7	15.6	?	4.3	-0.4%	11.9%
Cc1ccc(CN2CCc3c(OCC(=O)Nc4cc(C)ccc4C)cccc3C2=O)cc1	nt	-2.6	nt	nt	1.8	nt	0.2%
COC(=O)CN1C(=O)C(C)(C)Oc2ccc(C(=O)Nc3cccc(OC)c3)cc21	-7.6%	-9.9	2.3	6.9%	0.9	nt	10.0%
O=C(c1ccco1)N1CCN(c2c([N+](=O)[O-])nn(-c3cccc(Cl)c3)[n+]2[O-])CC1	-1.9%	18.9	3.5	-24.9%	-4.1	1.3%	-22.8%
Cn1cc(/C=C/C(=O)c2ccccc2)c2ccccc21	-23.7%	-6.8	8.2	0.2%[15.4 µM]	?	nt	50.1µM*
CN1CCN(CC(=O)NN(Cc2ccccc2)c2ccccc2)CC1	7.2%	13.2	1.1	-13.9%[15.4 µM]	-1.3	-1.9%	-14.8%
OC(CNCc1ccccn1)c1ccccc1 (stereo not given)	12.6%	-0.5	-11.0	?	-0.1	2.7%	-24.3%
CC(C)(C)NC(=O)CCN(/N=C/c1ccccc1O)C1=NS(=O)(=O)c2ccccc21	-30.6%	9.2	-6.2	-2.2%[15.4 µM]	-0.2	-0.5%	7.2%
CCOC(=O)C1=NNC2(c3ccccc3)C(=O)N(c3cccc(Br)c3)C(=O)C12 (stereo not given)	-1.8%	7.2	3.9	-34.1%	8.0	1.7%	-13.5%
CC(C)C1C(=O)NC(=S)N1S(=O)(=O)c1ccc(C(C)(C)C)cc1 (stereo not given)	2.1%	2.9	-11.5	17.6%	-0.1	0.4%	3.7%
NS(=O)(=O)c1ccc(NC(=O)c2cc(=O)c3ccccc3o2)cc1	-4.4%	-12.6	5.5	1.6%	-6.6	nt	10.2%
Cc1ccc(OCCC(=O)Nc2ccc3c(c2)OCCCO3)cc1	8.7%	7.9	-3.7	1.0%	nt	-3.6%	nt
O=C(OCc1ccccc1)N1CCC2CC1c1cc(-c3ccc(F)cc3)ccc12 (stereo not given)	-7.8%	nt	-16.0	nt	nt	-0.1%	nt
CC/C(O)=C(/C#N)c1nnc2n1CCCCC2	8.1%	0.1	-2.2	-41.7%[inhibitor]	3.3	-0.2%	14.1µM*
COc1ccc2[nH]c(C(=O)N/N=C/c3ccc(OC)c(O)c3)cc2c1	2.4%	-4.1	29.0	5.0%[15.4 µM]	4.1	nt	-4.4%
COc1ccc(-c2cc(C(F)(F)F)nc(S(=O)(=O)CCCC(=O)Nc3cccc(O)c3)n2)cc1OC	?	-13.3&-6.7	-10.9&-8.9	-25.1%[15.4 µM]	-7.7	-0.4%	14.0%
COc1ccc(OCc2cc(C(=O)N(C)C3CCOCC3)no2)c2ccccc12	1.1%	-0.7	-12.1	10.4%	0.4	-4.2%	1.4%
O=C(CNCc1ccco1)Nc1cc(S(=O)(=O)N2CCOCC2)ccc1N1CCOCC1	-4.4%	nt	-8.7	3.3%	nt	nt	nt
CN(C)CCSc1nc(-c2ccccc2)nc2c1CCCC2	2.5%	nt	-6.7	19.8%[15.4 µM]	4.0	15.8µM*	7.3%
Cc1ccc(S(=O)(=O)NCc2cccc([N+](=O)[O-])c2)cc1	nt	nt	-1.6	-5.7%	nt	-1.1%	nt
Cc1cccc(N2CCN(C(=O)c3csc4ccccc34)CC2C)c1 (stereo not given)	-21.2%	1.4	-3.0	-21.8%	-0.4	-2.5%	-17.8%
COc1ccc(C(=O)Nc2nc3ccccc3s2)cc1OC	-3.9%	16.8	-11.9	27.5%	14.7	nt	?
COCCCNC(=S)Nc1cccc(S(=O)(=O)NC2=NCCC2)c1	4.2%	-3.4	-14.0	?	0.6	nt	18.6%
CCCC1=Nc2cc(C(=O)NCc3ccco3)ccc2Sc2ccccc21	23.0%	-8.9	-22.5	-14.5%	3.8	1.2%	3.3%
COc1ccccc1N1CCN(C(=O)c2cc(-c3ccc(Cl)cc3)on2)CC1	13.6%	-10.7	6.5	?	2.7	-1.2%	6.3%
COc1ccc(NS(=O)(=O)c2cn(C)nc2C)cc1	8.8%	0.4	2.7	2.1%	0.5	0.9%	11.7%
O=C(/C=C/c1ccc(Cl)cc1Cl)NCCSc1ccccc1	44.7µM*	-3.0	14.3	?	1.4	-0.9%	4.2%
N#C/C(=C\c1cccc([N+](=O)[O-])c1)C(=O)NCc1ccc(Cl)cc1	13.7%	9.4	1.9	-2.7%[15.4 µM]	-4.2	nt	?
COc1ccc(NC(=O)c2cc3c(=O)n(C)c4ccccc4c3n2C)cc1OC	-10.0%	4.8	7.3	-31.9%[inhibitor]	-0.9	23.8%	?
CCOC(=O)C1(Cc2ccccc2C)CCCN(C(=O)CCC(=O)OC)C1 (stereo not given)	-18.1%	18.9	14.5	-9.7%[15.4 µM]	-6.1	0.5%	19.7%
COc1ccc(OC)c(NC=C2C(=O)OC3(CCCCC3)OC2=O)c1	-5.3%	6.2	-1.5	3.7%	7.8	-8.4%	-16.8%

Screens deposited in PubChem by National Center for Advancing Translational Sciences (NCATS).
